# Screens as filed in PubChem.
# TsaE inh: inhibitors of E. coli YjeE (TsaE) | purified YjeE, fluorescence polarisation of a bound ADP probe | Potency, µM | 71,000 compounds, 0.05% hits; active = well fitted falling curve; inconclusive = weaker or top-dose-only fall, or a rising curve; inactive = flat or poorly fitted curve;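 further: top concentration of the series not given in the record; excess ADP was the control for the full effect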
#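 Purified YjeE (10 uM) with BODIPY Texas Red-labeled ADP probe (2 uM); compounds pin-transferred, 15 min at room temperature. Binding inhibition read as decreased fluorescence polarization; ADP titration as control.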
# PK Bst: modulators of Bacillus stearothermophilus pyruvate kinase; 51,000 compounds, 1.2% hits; AID 361; partly purified Bacillus stearothermophilus pyruvate kinase, luminescence ATP production; ribose 5-phosphate activator present at AC10; Potency, µM; in the data active means potency below about 11 µM; inconclusive means mostly about 12 µM to 25 µM; inactive means weaker than that;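 the screen sought inhibitors and activators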;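 further: potency means the concentration at half of the fitted maximal effect; scaled between full activation by ribose 5 phosphate and full inhibition by luteolin; about four in five hits inhibit and the cells do not say which; series up to 57 µM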
# * hit, by the source's call; i = inactive; ? = inconclusive; · = no result given. These rows are one share of the data; count on the stated rates, not on these rows.
canonical_smiles | TsaE inh | PK Bst
CCOc1cc(-c2cc(-c3ccc(N)cc3)nc(N)c2C#N)ccc1O | i | >57
Oc1c(CN2CCOCC2)cc(COCc2ccccc2)c2cccnc12 | i | >57
Cc1onc(-c2ccccc2Cl)c1C(=O)NCC1CCCO1 (centres undefined) | i | ·
CC(C)Oc1ccccc1C1CC(=O)Nc2cc3c(cc21)OCCO3 (centres undefined) | i | >57
COc1ccc(C)cc1NC(=O)c1cc2c(CO)cnc(C)c2oc1=N | i | ·
COc1cccc(CN2CCN(C(=O)c3cccc(F)c3)CC2)c1 | i | ·
CCn1c(COc2ccc(C)cc2)nnc1SCC(=O)Nc1ccc(S(N)(=O)=O)cc1 | i | >57
CCCCn1c(SCC(=O)N2CCCC2)nc2c1c(=O)n(C)c(=O)n2C | i | >57
CCOC(=O)c1c(C)oc2c1c(C=NCc1ccccn1)c(O)c1ccccc12 | i | ·
CCCC(=O)Nc1cc(C)c(NC(=O)Cc2ccccc2)cn1 | i | >57
Clc1ccc(OCc2nnc(-c3ccccc3Br)o2)cc1 | i | >57
Cc1ncc2c(c1O)COP(=O)(O)OC2 | i | ·
O=C(O)CCc1ccc(-c2ccc(Br)cc2)n1Cc1ccco1 | i | >57
Cc1ccc2cccc(Oc3nnnn3-c3ccccc3)c2n1 | i | i
Cc1c(C(=O)Nc2ccccc2)oc2c1C(=O)CC(C)(C)C2 | i | >57

# (listing goes on)
canonical_smiles | TsaE inh | PK Bst
COc1ccc(-c2nc3cnc(OC)nc3n(Cc3cccs3)c2=O)cc1 | i | ·
O=C(Nc1cccc(F)c1)N1CCC2(CC1)CCN(C(=O)c1cc(C(F)(F)F)cc(C(F)(F)F)c1)CC2 | i | ·
C/C(=C(\C#N)C(=O)NCCN1CCOCC1)N(C)C | i | >57
CCOC(=O)N1CCN(C(=O)c2ccc(C#CC3(O)CCCCC3)cc2)CC1 | i | >57
COc1cc(NC(=O)c2cccs2)c(OC)cc1NC(=O)c1ccco1 | i | >57
Cc1cc(NC(=O)CSc2ccc3nnc(-c4cccnc4)n3n2)no1 | i | ·
CCOC(=O)c1[nH]c(C(=O)O)c(CCC(=O)OC)c1C | i | >57
O=P(OC1CCS(=O)(=O)C1)(c1ccccc1)c1ccccc1 (centres undefined) | i | >57
O=C(Nc1ncc(Br)s1)C(Cc1ccccc1)n1cccc1 (centres undefined) | i | ·
CC(=O)OCC(=O)[C@]12OC(C)(C)O[C@@H]1C[C@H]1[C@H]3CC=C4C[C@@H](O)CC[C@]4(C)[C@H]3CC[C@]12C | i | ·
Cn1c(=O)c(CCc2ccccc2)nc2cnc(N3CCNCC3)nc21 | i | ·
CCCc1nc2ccccc2c(=O)n1NC(=O)c1c(O)c2ccccc2[nH]c1=O | i | >57
N=C(N)SCCc1ccccn1 | i | ·
O=C(COCCOCC(=O)N(c1ccccn1)C1CCCCC1)N(c1ccccn1)C1CCCCC1 | i | >57
COC(=O)c1[nH]c2ccc(C)cc2c1NC(=O)CN1CCN(c2ccccc2)CC1 | i | >57

# Next section:
canonical_smiles | TsaE inh | PK Bst
COc1ccc(Cl)cc1N(CC(=O)Nc1ccccc1C(=O)NCc1ccco1)S(C)(=O)=O | i | >57
COc1cccc(-c2nc(CS(=O)CC(=O)NCc3ccccc3Cl)c(C)o2)c1 (centres undefined) | i | ·
Clc1ccc(Cc2nn3c(Cn4nnc5ccccc54)nnc3s2)cc1 | i | >57
Cc1ccccc1OCCCCCn1ccnc1 | i | ·
NCCSCc1ccccc1Cl | i | ·
COc1cc2[nH]c(=S)n(Cc3ccc(C)o3)c(=O)c2cc1OC | i | >57
COCCNC(=O)CN1CCC(n2c(C)nc3cc(C(F)(F)F)ccc32)CC1 | i | >57
C=CCc1c(C)nc(SCC(=C)C)[nH]c1=O | i | ·
O=C(NCn1ccc(=O)[nH]c1=S)c1ccccc1 | i | >57
Cc1nc(-c2ccccc2)nc2[nH]c(=O)n(-c3ccccc3)c(=O)c12 | i | >57
O=C(NC1CCCC1)C1CC(c2ccc(F)cc2)=NO1 (centres undefined) | i | >57
O=C1C(C=Nc2ccccc2O)=C(O)c2ccccc21 | i | 7.3*
CC1CC(C)CN(CCCNC(=O)C2CCC(=O)N2C2CCCC2)C1 (centres undefined) | i | >57
Oc1ccc(OCc2ccccc2)cc1 | i | ·
CSCCC(NC(=O)c1ccco1)C(=O)OC(C)C(=O)NC(=O)NC1CCCCC1 (centres undefined) | i | >57

# (cont.)
canonical_smiles | TsaE inh | PK Bst
CC(=O)N(C)c1ccc(NC(=O)c2ccco2)cc1 | i | ?
CS(=O)(=O)NCCC1=CCCCC1 | i | >57
CCOc1ccccc1OCCCC(=O)NC1=NCCS1 | i | >57
O=C(NCc1ccccc1)c1cc(-c2cccc(O)c2)on1 | i | ·
CCOc1ccc(C2C=C(c3ccccc3)Nc3nnnn32)cc1 (centres undefined) | i | >57
O=C(NCC1COc2ccccc2O1)C1C2C=CC3(CN(Cc4ccccc4Cl)C(=O)C13)O2 (centres undefined) | i | >57
NC1=N[C@H](c2ccc(Cl)cc2)N(c2ccc(S(N)(=O)=O)cc2)C(N)=N1 | i | ·
O=C1c2ccccc2-c2c1nc1c([n+]2[O-])CCCC1 | i | >57
CC(C)CCn1c(N2CCOCC2)nc2c1c(=O)n(CC(N)=O)c(=O)n2C | i | >57
Cc1cc(C)n(-c2ccc(C(=O)Nc3ccccn3)cc2)n1 | i | i
Cn1c(Cn2cnc(Cl)c2Cl)nc2ccccc21 | · | >26
Cc1nn(C)c(C)c1S(=O)(=O)N1CCC(C(=O)NC2CCCCC2)CC1 | i | >57
CCOC(=O)C1CCCN(C(=O)CN2C(=O)c3ccccc3C2=O)C1 (centres undefined) | i | ·
OCCCSCCO | i | ·
O=C(Nc1sccc1C(=O)NCc1ccco1)c1cccnc1 | i | ·

# Additional compounds follow.
canonical_smiles | TsaE inh | PK Bst
CCOC(=O)N1CCC(NC(=O)c2cccn3c(=O)c4cc(Br)ccc4nc23)CC1 | i | >57
O=C1OC(N2CCN(Cc3ccccc3)CC2)c2ccccc21 (centres undefined) | i | >57
Cc1cccc(C(=O)NC2CC(C)(C)NC(C)(C)C2)c1 | i | >57
Cc1cc(NC(=O)c2ccc(S(=O)(=O)N3CCOCC3)cc2)nc2c1c(=O)oc1ccccc12 | i | >57
O=C(Cn1ncc2ccccc21)N1CCc2ccccc21 | i | ·
CN1CCCC[C@@H]1CCN1CCCCC1 | i | ·
O=C(c1ccc(Cn2c(=O)[nH]c3ccccc3c2=O)cc1)N1CCN(c2ccc(Cl)cc2)CC1 | i | >57
CC(=O)Nc1ccc(OC(=O)c2cccnc2)cc1 | i | >57
Cc1ccc2cc3cc(C(=O)N4CCN(C(=O)c5ccco5)CC4)sc3nc2c1 | i | ·
CC(=O)Nc1ccc(N2CCN(Cc3ccccc3F)CC2)cc1 | i | >57
O=C(c1cccc(F)c1)N1CCC2(CCCN(Cc3ccncc3)C2)CC1 | i | ·
O=C(O)[C@@H]1[C@@H]2C[C@@H]3[C@@H](OC(=O)[C@@H]31)[C@H]2Br | i | ·
Oc1ccc2[nH]ccc2c1 | i | >57
CCOC(=O)CCn1nc(-c2ccc(Cl)cc2)cc1N | i | ·
CCCCc1nnc(NC(=O)C=C(C)C)s1 | i | >57

# Other records follow:
canonical_smiles | TsaE inh | PK Bst
CCOc1cc(C)nc(Oc2ccc(=O)[nH]n2)n1 | i | >57
CCOC(=O)c1sc(NC(=O)CSc2nnc(-c3ccco3)n2CC)c(C(=O)OCC)c1C | i | >57
O=C(c1ccc2c(c1)OCCO2)N(c1ccccn1)C1CCCCC1 | i | >57
O=c1cnc2cnc(Nc3ccccc3)nc2n1C[C@H]1CCCO1 | i | ·
Nc1cc(S(=O)(=O)O)ccc1O | i | ·
CCOC(=O)c1ccc(NC(=O)c2cc3ccccc3o2)cc1 | i | ·
COc1ccc(-c2noc(C3CCCN(S(=O)(=O)c4cccc(Cl)c4C)C3)n2)cc1OC (centres undefined) | i | >57
COc1ccc(-c2nnc(SCC(=O)Nc3ccccc3OC)o2)cc1 | i | >57
CC(C)CNC(=O)C1CCN(c2ccc(S(=O)(=O)N3CCOCC3)cc2)CC1 | i | >57
CC(=O)O[C@H]1C[C@@H]2CC[C@@H]3[C@H](CC[C@@]4(C)[C@H]3C[C@H]([N+]3(C)CCCCC3)[C@@H]4OC(C)=O)[C@@]2(C)C[C@@H]1[N+]1(C)CCCCC1 | · | >26
CC(=O)N1CCN(c2ccc(NC(=O)c3ccc4c(c3)OCO4)cc2)CC1 | i | >57
CN(C)c1ncnc2ccc(-c3ccc4c(c3)OCO4)cc12 | i | ·
CCOC(=O)C1=C(C)N(C)C(=O)NC1c1cc2c(cc1Br)OCO2 (centres undefined) | i | >57
CSc1nc2sc3c(c2c2nnnn12)CCC3 | · | >26
CNC(=O)CN(C1CCCCC1)S(=O)(=O)c1ccc(F)cc1 | i | >57

# 2 of these compounds in another layout:
# Second line of a record: TsaE inh, PK Bst
CC(=O)Nc1ccc(OC(=O)c2cccnc2)cc1
  i, >57
COc1cccc(CN2CCN(C(=O)c3cccc(F)c3)CC2)c1
  i, ·

# Gathered by group, those above with a cyano group.
canonical_smiles | TsaE inh | PK Bst
CCOc1cc(-c2cc(-c3ccc(N)cc3)nc(N)c2C#N)ccc1O | i | >57
C/C(=C(\C#N)C(=O)NCCN1CCOCC1)N(C)C | i | >57

# (list continues)
canonical_smiles | TsaE inh | PK Bst
CCCCOP(=O)(c1ccc(N(C)C)cc1)C(O)c1ccccc1F (centres undefined) | i | >57
O=C(CSc1nc2ccccc2[nH]1)Nc1cc(C(F)(F)F)ccc1N1CCOCC1 | i | >57
Cc1cc(C)nc(SCc2nnc(SCc3ccccc3Cl)o2)n1 | i | >11
O=C(Nc1ccc(-c2nc3ccccc3o2)cc1)c1ccc2c(c1)OCO2 | i | >57
O=CN1CC(=O)N(c2ccccc2)c2c([nH]c3ccccc23)C1 | i | >57
COc1ccc(-c2nc3ccccc3s2)cc1O | i | 0.64*
C[C@H](NC[C@H](O)CP(=O)(O)CC1CCCCC1)c1ccc(Cl)c(Cl)c1 | i | ·
CCOc1ccc(-c2noc(CCC(=O)NC)n2)cc1OCC | i | >57
Oc1ccc2ccccc2c1C=NC12CN3CCN(CN(C3)C1)C2 | · | >11
CCOC(=O)C1=C(C)N(C2CCCCC2)C(=O)C1 | i | ·
O=C(CSC1=NCCS1)NCc1ccco1 | i | ·
Cc1ccc2c(c1)N(CC(=O)Nc1ccc3c(c1)OCCO3)C(=O)CO2 | i | >57
COc1ccc(C(CNC(=O)CN2C(=O)NC3(CC(C)CC(C)(C)C3)C2=O)N2CCOCC2)cc1 (centres undefined) | i | >57
O=C(c1cc2n(n1)C(C(F)(F)F)CC(c1ccc(Cl)cc1)N2)N1CCCC1 (centres undefined) | i | >57
O=C(NCCC1=CCCCC1)C1CCN(S(=O)(=O)c2cccc3nsnc23)CC1 | i | >57

# Continuation.
canonical_smiles | TsaE inh | PK Bst
Cc1cc(S(=O)(=O)NCC(C)C)ccc1OCC(=O)NCc1ccccn1 | i | >57
Cc1cc2nc(SCC(=O)Nc3nonc3C)c3c(c2cc1C)CCCC3 | i | >57
CCOC(=O)/C(C#N)=C(/C)c1ccc(OC)cc1 | i | ·
COc1ccc(NC(=O)CN2CCN(CC(=O)Nc3ccccc3Cl)CC2)cc1Cl | i | >57
c1ccc(-c2cnc(CSc3ncnc4sccc34)o2)cc1 | i | >57
Cc1noc(C)c1S(=O)(=O)NC1CCCc2ccccc21 (centres undefined) | i | i
CSc1ccccc1N=Cc1nc(-c2ccccc2)oc1O | i | ·
CCOC(=O)C1C(=O)CC(C)(O)C(C(=O)OCC)C1c1ccc(OCC)cc1 (centres undefined) | i | ·
NC(=O)Cn1nnc(-c2ccc(C(F)(F)F)cc2)n1 | i | >57
Cc1ccc(-c2cc(C(F)F)nc(NCC3CCCO3)n2)cc1 (centres undefined) | i | ·
CCN1CCN(S(=O)(=O)c2ccc(Br)s2)CC1 | i | >57
Cc1ccc2c(c1)c(C)c(C)n2CC(O)Cn1nnc2ccccc21 (centres undefined) | i | >57
O=C(Nc1ccccc1NC(=O)c1c(F)c(F)c(F)c(F)c1F)c1c(F)c(F)c(F)c(F)c1F | i | >57
O=C(COc1cc(Cl)c(Cl)cc1Cl)NCCN1CCOCC1 | i | >57
c1csc(CNc2cc(-c3ccoc3)ncn2)c1 | i | ·

# (more compounds)
canonical_smiles | TsaE inh | PK Bst
CCOC(=O)C1CCCCN1Cc1ccccc1C(F)(F)F (centres undefined) | i | >57
NC(=O)c1ccccc1[N+](=O)[O-] | i | ·
COC(=O)c1[nH]c(=O)c2ccccc2c1OCc1ccccc1 | i | >57
Oc1ccc(COCc2ccccc2)c2cccnc12 | i | >57
COc1cccc(Nc2ncc3ncc(=O)n(CCC#N)c3n2)c1 | i | ·
CC1(C)CC(C(=O)Nc2nccs2)CCO1 (centres undefined) | i | >57
CCN1C(=O)/C(=C2/C=CC=CN2C)SC1=S | i | ·
CCOCCCNC(=O)C1CCN(S(=O)(=O)N2CC(C)CC(C)C2)CC1 (centres undefined) | i | >57
O=C(CSc1n[nH]c(-c2cccs2)n1)N1CCN(S(=O)(=O)c2ccccc2)CC1 | i | >57
COC(=O)c1nnc(-c2ccccc2)c(-c2ccccc2)n1 | i | >57
CC(C)CCNC(=O)CN(CCCN1CCOCC1)C(=O)Cn1nnc(-c2ccc(F)cc2)n1 | i | >57
COC(=O)c1c(NC(=O)CN2CCN(C(=O)c3ccco3)CC2)c2c(C)cccc2n1C | i | >57
